Bioassay records from PubChem.
PKD1 inh = blocks activity of human protein kinase D1. PKD1 kinase fluorescence polarization assay. inhibition, %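 (about 10 µM by stock and volumes)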. 200,000 compounds, 0.056% hits. AID 797;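 active = inhibition of 50% or more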;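 note: controls were vehicle for no effect and a reference inhibitor for full effect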
RGS16-Gao = regulators of human RGS16-Galphao interaction | O15492+P09471 | bead-based flow cytometry RGS16-Galphao binding, fluorescence; actives lie on both sides | binding response (% of control), % at 10 µM | 220,000 compounds, 0.38% hits;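 active = below 25% or above 175%, edge rows of some plates excepted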;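 note: Galphao activated by GDP with aluminum fluoride before binding; 100% = wells without compound and 0% = beads without RGS; some results beyond the cut were filed as inactive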
Target sequence (O15492 whole entry, looked up): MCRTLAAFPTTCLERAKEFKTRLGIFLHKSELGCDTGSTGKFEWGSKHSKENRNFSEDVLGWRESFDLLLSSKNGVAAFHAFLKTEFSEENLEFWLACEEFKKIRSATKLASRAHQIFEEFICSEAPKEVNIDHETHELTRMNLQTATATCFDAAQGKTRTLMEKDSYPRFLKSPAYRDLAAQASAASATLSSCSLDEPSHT
Target sequence (P09471 whole entry, looked up): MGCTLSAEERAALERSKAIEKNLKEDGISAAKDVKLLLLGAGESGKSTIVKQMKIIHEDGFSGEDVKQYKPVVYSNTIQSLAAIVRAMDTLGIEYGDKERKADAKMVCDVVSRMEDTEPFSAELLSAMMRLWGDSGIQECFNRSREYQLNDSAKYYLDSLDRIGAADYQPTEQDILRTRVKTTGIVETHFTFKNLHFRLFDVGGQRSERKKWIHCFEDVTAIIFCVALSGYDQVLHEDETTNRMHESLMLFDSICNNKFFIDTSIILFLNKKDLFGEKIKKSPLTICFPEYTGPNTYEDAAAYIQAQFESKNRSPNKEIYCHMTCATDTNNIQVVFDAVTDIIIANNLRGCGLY
GALR2 agonist = activates the human galanin receptor 2; O43603; GALR2-expressing cells, agonist activation read-out; activation, %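 (tested at 5 µM)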; 140,000 compounds, 0.48% hits; AID 803;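 active = above mean plus 3 SD of all compounds, about 5% in these data, not always enough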;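 note: 0% = vehicle buffer wells and 100% = reference agonist at full effect; tested in CHO reporter cells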
Target sequence (O43603 whole entry, looked up): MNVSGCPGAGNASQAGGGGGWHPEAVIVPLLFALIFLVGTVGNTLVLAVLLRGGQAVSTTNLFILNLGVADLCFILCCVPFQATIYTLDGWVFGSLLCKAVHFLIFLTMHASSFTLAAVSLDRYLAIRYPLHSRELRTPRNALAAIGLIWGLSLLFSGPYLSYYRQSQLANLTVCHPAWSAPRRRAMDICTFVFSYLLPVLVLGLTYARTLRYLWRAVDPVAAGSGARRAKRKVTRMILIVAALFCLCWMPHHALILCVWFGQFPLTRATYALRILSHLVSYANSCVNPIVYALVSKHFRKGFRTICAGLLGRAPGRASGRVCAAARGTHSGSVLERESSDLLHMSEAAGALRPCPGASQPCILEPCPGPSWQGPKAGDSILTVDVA
HSV augment = HSV replication enhancement | HSV replication augmentation in cells, fold increase | maximum fold increase | 220,000 compounds, 0.005% hits | AID 1956;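 active = peak rise of 1.5-fold or more in the series; inconclusive = self-fluorescent or not available for retest; tested in PC3 cells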;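 note: first round at 10 µM; read as green reporter fluorescence; hits show the peak of a series up to 25 µM; 1 = signal of infected wells without compound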
Insulin prom inh = TRM-6 insulin promoter activity inhibition | TRM-6 cells (human fetal islet line), insulin promoter-eGFP reporter, imaging; reporter expression induced with tamoxifen | inhibition, % at 2 µM | 130,000 compounds, 0.9% hits | AID 1273;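 active = inhibition above the mean plus 3 SD, with well images judged a real hit on visual review, cut at about 60% in these data, passing the limit was not always enough; inconclusive = inhibition over the cutoff but images rejected on review; inactive = inhibition not above the cutoff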
Insulin prom inh cell count = further read-out of Insulin prom inh, marked with its call; normalized cell count, %; measured here: cell count, toxicity; reference of the scale not given here;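 cells exposed to compound for 48 h; stained nuclei by imaging scaled within each plate; lower means fewer cells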
HSV augment primary fold = further read-out of HSV augment, marked with its call; fold increase; compound at 10 µM; measured here: primary screen fold increase 10 uM; tested in PC3 cells;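 GFP signal in the first replicate; 1 = infected wells without compound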
* = called active by the depositor; i = inactive; ? = inconclusive; . = not tested or not shown; [ ] = another dose, or the depositor's remark. Outcome played no part in choosing rows (roughly 1.3% active in at least one column).

Preview, 4 compounds:
mol	PKD1 inh	RGS16-Gao	GALR2 agonist	HSV augment	HSV augment primary fold	Insulin prom inh	Insulin prom inh cell count
CC(C)(C)NC(=O)C1N(c2cccnc2)C(=O)C2C(C(=O)Nc3ccccc3)C3(C)C=CC21O3 (stereo not drawn)	-14	108	-1.1	i	0.96	22	88
Cc1ccc(NC(=O)CSc2nc3ccccc3c(=O)n2CCCN2CCCCC2)cc1Cl	-4	300	.	i	0.64	-40	40
N#C/C(=C\c1cccc(O)c1)c1nc2ccccc2o1	.	99	.	i	1.1	.	.
Cc1cc(NS(=O)(=O)c2ccc(NC(=O)c3cc4c(=O)n5ccccc5nc4s3)cc2)nc(C)n1	-7	98	.	i	1	-121	105

The whole of this part, from the start:
mol	PKD1 inh	RGS16-Gao	GALR2 agonist	HSV augment	HSV augment primary fold	Insulin prom inh	Insulin prom inh cell count
CC(C)(C)NC(=O)C1N(c2cccnc2)C(=O)C2C(C(=O)Nc3ccccc3)C3(C)C=CC21O3 (stereo not drawn)	-14	108	-1.1	i	0.96	22	88
Cc1ccc(NC(=O)CSc2nc3ccccc3c(=O)n2CCCN2CCCCC2)cc1Cl	-4	300	.	i	0.64	-40	40
N#C/C(=C\c1cccc(O)c1)c1nc2ccccc2o1	.	99	.	i	1.1	.	.
Cc1cc(NS(=O)(=O)c2ccc(NC(=O)c3cc4c(=O)n5ccccc5nc4s3)cc2)nc(C)n1	-7	98	.	i	1	-121	105
Cc1ccc(C(=O)COC(=O)C2C3C=CC(C3)C2C(=O)OCC(=O)c2ccc(C)c(C)c2)cc1C (stereo not drawn)	-12	103	-1.5	i	0.86	36	89
O=C(CN1CCS(=O)(=O)CC1)NNC(=O)C1CCCCC1	3	99	.	i	1	-7	68
O=S(=O)(c1ccc(OCC(O)CN2CCN(c3ccccc3Cl)CC2)cc1)N1CCOCC1 (stereo not drawn)	-6	99	-1.5	i	0.96	.	.
CCOC(=O)c1c(C)oc2c1c(C=NCCC(=O)O)c(O)c1ccccc12	-1	96	.	i	1.1	-61	138
O=C(NCc1ccc(F)cc1)C(=O)NCC1OCCN1S(=O)(=O)c1cccs1 (stereo not drawn)	-13	.	0.6	i	0.87	0	125
Cc1cc(C)nc(N/N=C/c2cn[nH]c2-c2ccc(F)cc2)n1	.	96	.	i	0.97	.	.
COCCCNC(=O)Cn1ncc2c(=O)oc3ccccc3c21	10	99	-0.2	i	1	.	.
CCO[C@@H]1OC(C(=O)NCc2nc3ccccc3[nH]2)=C[C@H](c2ccccc2)[C@H]1CCCO	5	108	.	i	0.77	.	.
O=C1N=C2SCCN2/C1=C\c1c(Cl)cccc1Cl	2	99	1.4	i	0.97	.	.
O=C(CSc1nnc(Cn2c(=O)sc3ccccc32)n1-c1ccccc1)N1CCOCC1	-4	98	-2.0	i	0.98	36	53
CN(C)C(=O)c1cc2cc([N+](=O)[O-])ccc2s1	-11	103	-0.2	i	0.97	-12	109
CON/C=C(\C=Nc1ccc(Cl)cc1Cl)c1ncc(C(F)(F)F)cc1Cl	-2	102	-4.1	i	0.87	48	121
COc1cc(C2C(C(=O)c3ccc(C)o3)=C(O)C(=O)N2Cc2cccnc2)ccc1O (stereo not drawn)	-1	104	-1.9	i	1	25	90
CC(=O)NCc1ccc(S(=O)(=O)N/N=C/c2ccc(Br)cc2)cc1	-3	101	-0.9	i	0.99	37	100
O=C(Nc1cccc(C(F)(F)F)c1)c1cc2c(=O)c3ccccc3oc2nc1C(F)(F)F	-7	101	-0.9	i	0.86	22	50
COC(=O)C(C(=O)OC)c1ncccc1[N+](=O)[O-]	.	99	.	i	1.1	.	.
CCOC(=O)CSc1nnnn1-c1cc(OC)c(Cl)cc1OC	-9	101	-1.7	i	0.91	-64	178
COc1cc(/C=C2\SC(c3ccc(C)cc3)=NC2=O)ccc1O	-11	88	-3.3	i	0.84	0	110
O=C(/C=C1\SC(=O)N(CC(=O)Nc2ccc(Cl)cc2)C1=O)Nc1ccc(F)cc1	-5	103	-0.6	i	1.1	48	78
CCCc1nc(NCc2ccc3c(c2)OCO3)c2nnn(Cc3ccccc3Cl)c2n1	-2	104	-2.9	i	0.95	-103	95
N#Cc1nc(COc2ccccc2F)oc1N1CCCCCC1	2	106	-2.1	i	0.93	-182	62
O=C(CCc1nnc(CCCCc2ccccc2)o1)NC1CCCC1	-10	106	.	i	0.97	.	.
CCN(CC)c1ccc(/C=C(\C#N)C(N)=S)cc1	.	99	.	?	.	.	.
CCOc1ccc(NC(=O)CSCc2cnn(-c3ccccc3)c2-n2cccc2)cc1	-3	84	-2.6	i	1.2	17	129
CCCCN(C(=O)/C=C/c1ccco1)c1c(N)n(Cc2ccccc2)c(=O)[nH]c1=O	1	101	.	?	.	29	95
CCC(COC(C)=O)Nc1nc2c([nH]1)c(=O)n(C)c(=O)n2C (stereo not drawn)	.	96	.	i	1	.	.
O=C(O)/C(=C\c1ccccc1Cl)c1ccc(S(=O)(=O)N2CCCCC2)s1	1	101	-1.3	i	0.98	.	.
O=C(c1ccc(S(=O)(=O)N2CCOCC2)cc1)N1CCN(c2cccc(Cl)c2)CC1	-9	110	-0.4	i	1.2	-59	138
Cc1noc(C)c1C(=O)OCC(=O)Nc1ccccc1C(=O)NC(C)c1ccccc1 (stereo not drawn)	-2	106	-0.9	i	0.92	-68	128
O=C(N/N=C/c1ccc(OC(=O)c2ccco2)cc1)c1ccccn1	-7	104	.	i	1	.	.
COc1ccc(C2=NCC(CSc3nnc(-c4ccc5c(c4)OCO5)o3)S2)cc1 (stereo not drawn)	0	108	0.4	i	0.88	33	61
O=C(NNC(=S)NCCCN1CCOCC1)c1ccncc1	-8	96	.	i	1	5	111
COC(=O)c1sc2nc[nH]c(=O)c2c1C	1	174	-0.3	.	.	.	.
Cc1ccc(C)c(C(=O)N(C)CC(=O)Nc2ccccc2C(F)(F)F)c1	-5	101	.	i	1	-36	98
O=C(COc1ccc(S(=O)(=O)N2CCCC2)cc1Cl)NC1CCCC1	0	110	1.1	i	1	30	122
O=C(N/N=C/C(Cl)=C/c1ccccc1)c1ccccn1	-1	103	.	i	0.9	.	.
CC1CCCN(CCCNC(=O)c2coc3nc4ccccc4nc23)C1 (stereo not drawn)	-10	98	2.3	i	1.1	.	.
Cn1c(=O)c2c(nc(NCCc3ccccc3)n2CC(=O)NCCc2ccccc2)n(C)c1=O	2	107	-1.2	i	1.1	-83	92
CN(Cc1ccccc1)S(=O)(=O)c1cccc2cccnc12	-5	93	-2.7	i	1	0	112
Nc1ccc(N2CCOCC2)c(Cl)c1	-2	89	-3.2	i	1.1	56	105
Cc1onc(-c2c(Cl)cccc2Cl)c1C(=O)NNc1ccccc1	.	108	.	i	1.1	.	.
O=C(COc1ccccc1)Nc1nnc(-c2ccco2)o1	-4	102	.	i	0.96	.	.
CC[n+]1ccc(C(=O)NCc2ccccc2)cc1	1	88	.	i	1.1	.	.
CCCNC(=O)C1CNc2ccccc2O1 (stereo not drawn)	0	46	-0.9	i	0.92	-44	65
C/C=C(\C)C(=O)N[C@@H](C)CN1C2=NC[C@H](C(C)C)N2C[C@H]1Cc1ccc(OC)cc1	.	85	.	i	1.1	.	.
Cc1oc(-c2ccccc2)nc1CSc1nc2c(c(=O)[nH]1)CCC2	-13	93	0.4	.	.	12	96
COc1ccc2[nH]cc(CCNS(=O)(=O)c3ccccc3)c2c1	-4	107	.	i	0.85	29	104
NC(=O)c1ccccc1NC(=S)NC(=O)CCc1ccccc1	-12	101	0.3	i	0.66	-23	56
CC1(C)OC(=O)C(=NNc2ccccc2)C(=O)O1	-12	95	-0.8	i	1	-11	93
CCn1c(=O)cc(SCC(=O)NCc2cccnc2)c2ccccc21	-8	98	-4.7	i	1	6	122
CCOCC(=O)Nc1cc(C(=O)OC)cc(C(=O)OC)c1	0	203*[activator]	-0.5	i	1	-7	97
FC(F)(F)c1cccc(NC(=S)N(CCCN2CCCC2)Cc2cccn2Cc2ccc(Cl)cc2)c1	-5	107	.	i	0.75	-147	99
COc1ccc(N=C2SCC(=O)N2c2ccc(OC)cc2)cc1	-13	100	0.1	.	.	.	.
Cc1ccc(-c2csc3ncnc(-n4nnc5ccccc54)c23)cc1C	-9	104	-1.0	i	0.92	-8	103
CCOc1ccc(NC(=O)Nc2ccc3nccnc3c2)cc1	-6	101	-1.0	i	1	-22	119
COC(=O)c1ccc(SCC(=O)NC2CCCC2)c([N+](=O)[O-])c1	3	103	0.0	i	0.99	-34	121

Further entries:
mol	PKD1 inh	RGS16-Gao	GALR2 agonist	HSV augment	HSV augment primary fold	Insulin prom inh	Insulin prom inh cell count
Cc1ccc(-c2nnc(SCC(=O)NCC3CCCO3)n2C)cc1 (stereo not drawn)	-2	99	-2.1	i	1	16	82
COc1ccc(N2CCN(C(=O)CNS(=O)(=O)c3ccc(C)cc3)CC2)cc1	4	98	.	i	1.1	-6	101
Cn1c(SCC(=O)N2CCOCC2)nc(O)cc1=O	0	97	-1.2	i	1.2	7	121
O=C(CNC(=O)c1ccc([N+](=O)[O-])cc1)N/N=C\c1ccc(OC(=O)c2ccccc2)cc1	-6	102	-1.9	i	1.1	32	69
COc1ccc(CC(NC(C)=O)C(=O)NC2CCN(c3c(Cc4ccccc4)c(C)nc4ncnn34)CC2)cc1OC (stereo not drawn)	-10	107	-2.0	i	0.91	-6	116
Cc1ccc(Cl)cc1NC1=NC(=S)N(C(C)C)C12CCCCC2	-4	39	-2.8	i	0.94	10	133
CCc1ccc(Oc2cc(C)nc(N)n2)cc1	-4	144	-3.3	i	0.88	50	108
CNS(=O)(=O)c1ccc(N2CCCC2)c([N+](=O)[O-])c1	-2	100	.	i	0.94	.	.
COc1ccc(NC(=O)Cn2nc(C(F)(F)F)c3c2CCCC3)c(OC)c1	-2	100	-2.1	i	1.1	0	113

Full records as entered above.
`Cn1c(SCC(=O)N2CCOCC2)nc(O)cc1=O` is listed with PKD1 inh = 0; RGS16-Gao = 97; GALR2 agonist = -1.2; HSV augment = i; HSV augment primary fold = 1.2; Insulin prom inh = 7; Insulin prom inh cell count = 121
`O=C(CNC(=O)c1ccc([N+](=O)[O-])cc1)N/N=C\c1ccc(OC(=O)c2ccccc2)cc1` is listed with PKD1 inh = -6; RGS16-Gao = 102; GALR2 agonist = -1.9; HSV augment = i; HSV augment primary fold = 1.1; Insulin prom inh = 32; Insulin prom inh cell count = 69
`CNS(=O)(=O)c1ccc(N2CCCC2)c([N+](=O)[O-])c1` is listed with PKD1 inh = -2; RGS16-Gao = 100; GALR2 agonist = .; HSV augment = i; HSV augment primary fold = 0.94; Insulin prom inh = .; Insulin prom inh cell count = .
